Sa ugtP lethal = growth inhibition of ugtP-null S. aureus, primary screen, RN4220 ugtP deletion, OD600 | 16 h; some inactives read as strong as hits | growth inhibition, % (concentration not given with the values) | 330,000 compounds, 0.54% hits | AID 1259309, 2017;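 active = z-score under -3 and OD600 up to 0.15 on both plates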;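 also: plate controls were untreated wells for no effect and antibiotic for full effect; wells of about 80 µL received 100 nL stock; the first replicate is given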
BJeLR lethal = MLPCN primary cell-based screen for lethality selective to Ras in HRASV12 cells; 300,000 compounds, 0.17% hits; inhibition, % (no concentration beside the values); BJeLR (HRASV12) viability, CellTiter-Glo ATP luminescence, 48 h; reference of the scale not given here;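 active = replicate mean above 50%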;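 also: 50 nL library stock added to about 25 µL; numbers are from one replicate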
Bead autofluor = flagged as autofluorescent in microsphere protease counterscreen | compound autofluorescence counterscreen, microsphere flow cytometry; stronger effect = higher value | fluorescence intensity (test concentration not listed) | 360,000 compounds, 3.1% hits;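 active = at least 3 SD above the mean of all compounds, about 16000 in these data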;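 also: 100 nL of 1 mM stock went into each well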
RN4220 kill = growth inhibition of S. aureus RN4220, primary screen, OD600. inhibition, % (concentration not given with the values). 16 h. 330,000 compounds, 0.33% hits;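 active = z-score of -3 or lower and OD600 up to 0.18 on both plates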;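 also: plate controls were untreated cells for no effect and reference antibiotic for full effect; stock transfer was 100 nL into about 80 µL; one replicate is shown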
PrP UTR inh = inhibition of PrP 5' UTR reporter expression; inhibition, % (concentration not given with the values); AID 488862, 2010; cell-based PrP 5' UTR mRNA reporter, plate reader; 340,000 compounds, 0.35% hits;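 active = every replicate at 50% or more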;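 also: 0 = median of the neutral control wells; tested in H4 reporter cells; numbers are from one replicate; inactives centre near -14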
Mtb hypoxia rep = PubChem AID 1159583 | M. tuberculosis hypoxia-regulated fluorescent reporter, fluorescence | fluorescence inhibition, % (concentration not given with the values) | 300,000 compounds, 0.1% hits;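 active = 35 to 45% if threefold the growth effect, above 45% if 1.5-fold the growth effect; inactive = the rest, general growth blockers included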;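 also: wells of about 50 µL received 100 nL stock; 0% = vehicle wells and 100% = reference inhibitor wells; whole bacteria with a GFP reporter of the hypoxia response; strong numbers were not always called active; many hits fall short of the cut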
Mtb hypoxia rep growth = further read-out of Mtb hypoxia rep, marked with its call; growth inhibition, %; measured here: M. tuberculosis growth (absorbance);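 0% = vehicle and 100% = reference antibiotic; read after six days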
Active calls of the source: *; . = not tested or not shown; & = joins results of further samples.

SMILES | Sa ugtP lethal | BJeLR lethal | Bead autofluor | RN4220 kill | PrP UTR inh | Mtb hypoxia rep | Mtb hypoxia rep growth
Cc1ccc(S(=O)(=O)NCCCn2ccnc2)cc1 | 1 | 3 | 2884 | 4.6 | -32 | 10 | -1
CC1CN(C(C)CO)C(=O)c2cccc(NS(C)(=O)=O)c2OC1CN(C)Cc1ccc(Oc2ccccc2)cc1 (stereo not given) | 5 | . | . | 4.7 | . | 8 | 6
O=C(NNC(=O)c1ccc(Br)s1)c1ccc(F)c(S(=O)(=O)N2CCOCC2)c1 | 3 | . | 3608 | 0.5 | -3 | 1 | -5
COc1ccc(OCc2cnc(Cl)s2)cc1 | 0 | 11 | 2889 | -2.9 | -19 | 4 | 8
CC(C)(C)OC(=O)N1CC(O)CC1C(=O)OCC(=O)c1ccc(Cl)cc1 (stereo not given) | 1 | -13 | 20684* | 2.5 | -16 | 7 | 5
CCC(C)[C@H](NC(=O)c1cc2cc(Cl)ccc2n1C)C(=O)N1CCC[C@H]1C(=O)O (stereo not given in full) | -8 | 0 | 6006 | 5.9 | -24 | . | .
COc1ccc(N(CC(=O)N2CCN(c3ccccc3F)CC2)S(=O)(=O)c2c(C)n[nH]c2C)cc1 | 4 | -3 | 4266 | 5.6 | -7 | 11 | 0
CCn1c(COc2ccccc2)nnc1SCc1ccc(C#N)cc1 | 3 | -3 | 2511 | 16 | -1 | . | .
CCn1c2ccccc2n2c(=O)c(=O)n(CC(=O)Nc3ccc(C(C)C)cc3)nc12 | 0 | 2 | 2442 | -1.6 | -6 | -5 | 10
Cc1nc2c(c(C)nn2-c2ccccc2)c(C)c1CCC(=O)Nc1ccc(CN2CCCC2)cc1 | 8 | 10 | 4809 | -5.6 | -2 | 11 | 16
Cc1ccc(C)c(N2N=C(C(=O)OCC(=O)N(C)c3ccccc3)CCC2=O)c1 | 4 | . | . | 6.2 | -9 | -7 | -3
CC(C)Nc1nc(SCC(=O)Nc2ccccc2)nc(N2CCOCC2)n1 | -10 | -2 | 6136 | -3.9 | 0 | . | .
CC(=O)Nc1cc2c(cc1C(=O)C(C)C)OCCO2 | 3 | -7 | 3774 | 1.4 | -24 | . | .
COC(=O)N/N=C\c1c(C)nn(-c2ccccc2)c1Cl | . | -3 | 9787 | . | -50 | . | .
O=C(CSc1ncccn1)NCc1ccc(Cl)cc1 | 2 | -1 | 2599 | 2.3 | -6 | 4 | -2
CC(C(=O)N1CCN(Cc2ccccc2)CC1)c1ccc([N+](=O)[O-])cc1 (stereo not given) | 7 | 3 | 5008 | 6.1 | -17 | 1 | 4
Cc1ccsc1/C=N/n1c(=S)[nH]nc(C)c1=O | . | -7 | 2699 | . | -1 | . | .
COC(=O)c1cc2occc2n1Cc1ccc(Cl)cc1 | 30 | -1 | 22264* | -4.6 | 12 | 1 | -4
COC(=O)C(O)(c1ccc(N=Cc2ccccc2O)c(C)c1)C(F)(F)F (stereo not given) | 9 | -17 | 2694 | 6.0 | -14 | 5 | 12
CCOC(=O)c1ccc(NS(=O)(=O)c2c(N)n(C)c(=O)n(C)c2=O)cc1 | 0 | 7 | 3638 | 5.5 | -5 | 21 | 9
O=C(C1CCN(S(=O)(=O)c2cccc([N+](=O)[O-])c2)CC1)N1CCOCC1 | 7 | -3 | 4613 | 3.4 | -19 | 4 | 5
C1CCCCCC(=NNc2nn[nH]n2)CCCCC1 | 6 | 3 | 3358 | 6.0 | -15 | 8 | -3
CCn1c(C)c(C)c2cc(C(=O)N3CCN(c4ccccc4)CC3)ccc21 | -16 | 11 | 5323 | -5.3 | -7 | -11 | 8
O=C(NCC(c1cccs1)N1CCc2ccccc21)c1ccccc1 (stereo not given) | 12 | 7 | . | 3.6 | -11 | 9 | 2
CCOc1ccc(NC(=O)c2ccc(NC(=O)COC(=O)Cc3ccc(OC)cc3)cc2)cc1 | 0 | 0 | 1945 | 5.8 | -61 | 5 | 12
COCC(C)NC(=O)c1cc(-c2ccc(O)cc2)on1 (stereo not given) | 3 | 3 | 5590 | 6.9 | -28 | -6 | -2
O=C1CC(c2ccc(F)cc2)Cc2nc(N3CCN(c4ccccc4)CC3)ncc21 (stereo not given) | -6 | -4 | 2116 | 0.3 | -12 | . | .
Cc1nc(C)n(C)c(=O)c1-c1ccccc1 | 2 | -10 | 3902 | 0.8 | -15 | -5 | 4
O=C(CCCCn1c(=O)c2ccccc2n(Cc2ccc(F)cc2Cl)c1=O)NCc1ccco1 | 0 | -5 | 2082 | -4.6 | -7 | . | .
O=C(N/N=C/c1ccncc1)c1cccc(S(=O)(=O)Nc2ccc(Cl)cc2)c1 | . | 4 | 4449 | . | -3 | . | .
O=C(NNC(=O)C1COc2ccccc2O1)c1cccc([N+](=O)[O-])c1 (stereo not given) | -3 | -7 | 4962 | -7.4 | -35 | 0 | -7
CCCN1C(=O)/C(=C/c2ccco2)SC1=Nc1ccc(OC)cc1 | . | -7 | 3161 | . | -8 | . | .
O=C(NCc1cccnc1)/C(=C/c1ccc(Cl)cc1)NC(=O)c1ccccc1 | 12 | -5 | 5746 | 2.7 | -6 | 2 | 0
COc1ccc(C2Nc3ccccc3C(=O)N2c2ccc(Cl)cc2)cc1Cn1cc([N+](=O)[O-])cn1 (stereo not given) | 6 | -10 | 2091 | -3.2 | -29 | 6 | 15
CCC(C(=O)Nc1cnccn1)c1ccccc1 (stereo not given) | 3 | -1 | 24267* | 3.7 | -9 | -2 | -5
Nc1nonc1-n1nnc(C(=O)NN=Cc2ccncc2)c1-c1ccccc1 | -10 | . | . | 0.1 | . | -13 | -2
COc1cc(NC(=O)c2cccnc2)c(Cl)cc1NC(=O)c1ccccc1 | 2 | 3 | 5294 | 2.4 | 0 | 5 | 2
CCCCCn1c(N)c(-c2nc3ccccc3o2)c2c([N+](=O)[O-])nn(C)c(=O)c21 | -2 | -16 | 2173 | 2.7 | -1 | 12 | 3
COc1ccc(-c2nc3c(c(=O)[nH]c(=O)n3Cc3ccccc3)n2C)cc1 | -5 | 3 | 2389 | 10 | -3 | 6 | -7
COc1ccc(S(=O)(=O)N(C)CC(=O)NC2CC2)cc1 | -6 | -3 | 8127 | -2.3 | -18 | -1 | 1
O=C(Nc1ccc(-c2csc(Nc3ccc(Cl)cc3)n2)cc1)c1cccc(C(F)(F)F)c1 | -31 | 5 | . | -1.1 | . | 5 | 0
COc1cc(C(=S)N2CCOCC2)cc(OC)c1OC(=O)c1cccc(C)c1 | 2 | -9 | 3998 | 3.0 | -12 | 6 | 2
NC(=O)c1oc2ccc(Cl)cc2c1NC(=O)CN1CCOCC1 | -6 | -11 | 2750 | -11 | -13 | 2 | 12
CC1C/C(=N\NC(=S)NC(C)C)CC(C)(C)C1 (stereo not given) | . | -2 | 3120 | . | -31 | . | .
FC(F)(F)c1ccccc1-n1ccnc1 | -4 | . | 5457 | 9.1 | 60* | 10 | 2
O=C(Nc1ccc(S(=O)(=O)N2CCCCCC2)cc1)c1ccc(Br)o1 | -15 | 4 | 21567* | 5.4 | -38 | 3 | 13
Cc1ccc(N=Nc2ccc(O)c3ncccc23)cc1 | -5 | 15 | 1921 | 36 | 37 | 5 | -1
CC(C)(C)OC(=O)CC1CC=CCC(CC(=O)N(CCO)Cc2ccccc2)C(=O)NC(c2ccccc2)COC1=O (stereo not given) | 4&11&-5 | . | . | 4.7&6.7&3.3 | . | 0&5&7 | 4&-1&1

Complete entries, looked up by structure. Values in the order: Sa ugtP lethal	BJeLR lethal	Bead autofluor	RN4220 kill	PrP UTR inh	Mtb hypoxia rep	Mtb hypoxia rep growth
Results for CC1C/C(=N\NC(=S)NC(C)C)CC(C)(C)C1 (stereo not given) : .	-2	3120	.	-31	.	.
Results for COc1ccc(-c2nc3c(c(=O)[nH]c(=O)n3Cc3ccccc3)n2C)cc1 : -5	3	2389	10	-3	6	-7

(more compounds)
SMILES | Sa ugtP lethal | BJeLR lethal | Bead autofluor | RN4220 kill | PrP UTR inh | Mtb hypoxia rep | Mtb hypoxia rep growth
CC(=NNC(=O)c1cccc(C)c1O)c1ccc(NC(=O)Cc2ccccc2)cc1 | -5 | . | . | -0.4 | . | 2 | 11
CCCN(CC(=O)Nc1cc(Cl)ccc1Cl)C(=O)CN1C(=O)C2CCCCC2C1=O (stereo not given) | 3 | 2 | 6287 | 0.7 | -12 | 2 | 11
O=c1[nH]cnc2nc(-c3ccccc3)c(-c3ccccc3)nc12 | 9 | -2 | 3583 | 1.1 | -35 | 10 | 16
O=C(NCC1CCCO1)C(c1cccs1)N(C(=O)c1ccc(CN2CCOCC2)o1)c1ccc(Cl)cc1 (stereo not given) | 1 | 15 | 3009 | 8.2 | -1 | -1 | 17
COc1ccc(NC(=O)c2cccc(Oc3ccccc3)c2)cn1 | 10 | 10 | 5766 | -4.1 | -26 | 7 | 5
COCCNC(=O)C(c1ccc(C)o1)N(C(=O)c1snc(C(N)=O)c1N)c1ccc(C)c(C)c1 (stereo not given) | -7 | -2 | 4368 | 1.5 | -3 | 1 | 8
O=c1[nH]c(SCc2nc3ccccc3c(=O)n2-c2ccccc2)nc2ccccc12 | -3 | -2 | 2503 | 2.7 | -30 | -2 | 6
O=C(c1ccccc1)c1ccc(OCCCN2CCCCC2)cc1 | 2 | 2 | 4556 | 1.9 | 2 | . | .
Cc1cccc(NC(=S)N(Cc2cccs2)Cc2cc3cc(C)ccc3[nH]c2=O)c1 | -11 | 1 | 2447 | 6.3 | -30 | 6 | 1
COc1ccccc1-n1c(C)nnc1SCC(N)=O | 6 | -5 | 22827* | 4.4 | -8 | 3 | 2
CC(C)C(OC(=O)Cn1nnc2ccccc21)C(=O)NC1CCCC1 (stereo not given) | -4 | -12 | 6128 | -1.5 | -17 | 5 | 3
COc1ccc(CNS(=O)(=O)NCc2ccc(OC)c(OC)c2)cc1OC | 0 | 4 | 2232 | 0.9 | -24 | -6 | -3
N/C(=N\OC(=O)c1cccc2ccccc12)c1cccc([N+](=O)[O-])c1 | . | -1 | 16600* | . | -17 | . | .
CCCCCOC(=O)CSc1nnc(-c2cc(OC)c(OC)c(OC)c2)o1 | 11 | 2 | 11177 | 7.8 | -38 | 13 | 1
CC(C)(C)NCC(=O)N/N=C/c1ccc(OCc2ccccc2)cc1 | . | -8 | 3833 | . | -48 | . | .
CC(C)c1nc(CNC(=O)CC2C(=O)NCCN2Cc2cccc(F)c2F)cs1 (stereo not given) | -1 | -1 | 5221 | 3.3 | -9 | 4 | 2
O=C(NC1CCCCC1)N(Cc1nc2ccccc2c(=O)[nH]1)C1CCCCC1 | -1 | -1 | 3383 | -0.1 | -1 | . | .

Arranged by length of the SMILES (lowest first): some entries from above.
SMILES | Sa ugtP lethal | BJeLR lethal | Bead autofluor | RN4220 kill | PrP UTR inh | Mtb hypoxia rep | Mtb hypoxia rep growth
COc1ccccc1-n1c(C)nnc1SCC(N)=O | 6 | -5 | 22827* | 4.4 | -8 | 3 | 2
O=C(c1ccccc1)c1ccc(OCCCN2CCCCC2)cc1 | 2 | 2 | 4556 | 1.9 | 2 | . | .
COc1ccc(NC(=O)c2cccc(Oc3ccccc3)c2)cn1 | 10 | 10 | 5766 | -4.1 | -26 | 7 | 5
CC(C)C(OC(=O)Cn1nnc2ccccc21)C(=O)NC1CCCC1 (stereo not given) | -4 | -12 | 6128 | -1.5 | -17 | 5 | 3
COc1ccc(CNS(=O)(=O)NCc2ccc(OC)c(OC)c2)cc1OC | 0 | 4 | 2232 | 0.9 | -24 | -6 | -3
O=C(NC1CCCCC1)N(Cc1nc2ccccc2c(=O)[nH]1)C1CCCCC1 | -1 | -1 | 3383 | -0.1 | -1 | . | .
N/C(=N\OC(=O)c1cccc2ccccc12)c1cccc([N+](=O)[O-])c1 | . | -1 | 16600* | . | -17 | . | .
Cc1cccc(NC(=S)N(Cc2cccs2)Cc2cc3cc(C)ccc3[nH]c2=O)c1 | -11 | 1 | 2447 | 6.3 | -30 | 6 | 1
COCCNC(=O)C(c1ccc(C)o1)N(C(=O)c1snc(C(N)=O)c1N)c1ccc(C)c(C)c1 (stereo not given) | -7 | -2 | 4368 | 1.5 | -3 | 1 | 8
O=C(NCC1CCCO1)C(c1cccs1)N(C(=O)c1ccc(CN2CCOCC2)o1)c1ccc(Cl)cc1 (stereo not given) | 1 | 15 | 3009 | 8.2 | -1 | -1 | 17

Compound activity from PubChem BioAssay.
